Screens: PubChem BioAssay, National Center for Advancing Translational Sciences (NCATS)
VDR inh: vitamin D3 receptor (human) inhibition; VDR-SRC2-3 peptide fluorescence polarization, 2 h; Potency, µM, for the others: max response, negative = inhibition, usual class: inhibitors; 0.93% of 400,000 active; P11473; AID 504847; active means well fitted inhibition curve with a large enough effect; inconclusive means small, poorly fitted or top-dose-only effect, or another doubt; inactive means no such curve, though single readings can be large or run the other way; further: series mostly up to about 120 µM
Target sequence (P11473 whole entry, looked up): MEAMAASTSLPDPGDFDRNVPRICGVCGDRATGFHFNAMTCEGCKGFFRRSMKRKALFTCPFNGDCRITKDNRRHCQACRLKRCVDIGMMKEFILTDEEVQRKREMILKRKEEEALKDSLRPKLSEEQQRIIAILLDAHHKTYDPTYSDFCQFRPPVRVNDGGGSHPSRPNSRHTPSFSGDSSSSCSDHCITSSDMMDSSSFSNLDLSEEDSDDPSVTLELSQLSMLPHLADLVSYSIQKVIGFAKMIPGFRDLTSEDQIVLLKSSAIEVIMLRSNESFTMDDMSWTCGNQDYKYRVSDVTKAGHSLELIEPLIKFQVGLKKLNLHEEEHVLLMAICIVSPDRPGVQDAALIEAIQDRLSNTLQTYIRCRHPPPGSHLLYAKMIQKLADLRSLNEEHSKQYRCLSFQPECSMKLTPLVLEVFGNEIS
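Inhibition of the VDR/SRC2-3 peptide interaction is quantified by fluorescence polarization. Compounds (23 nl, pintool) incubate with the reagents for 2 hours at ambient room temperature.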
Active calls of the source: *; u = inconclusive; [ ] = dose if it differs, or a comment. On the % scale 0 is the no-effect control and ±100 the full control effect; potency means the concentration at half of the fitted maximal effect. Only part of the results is shown; rates above refer to the full screens.

SMILES | VDR inh
CC(=O)OC1COC(N2CCc3cc(Br)c([N+](=O)[O-])cc32)C(OC(C)=O)C1OC(C)=O (centres undefined) | -2%
O=C(NCCCN1CCC(Cc2ccccc2)CC1)C1CCC(=O)N1C1CCCC1 (centres undefined) | -5%
Cc1cccc(NC(=O)C2CCCN(c3nc4ccccc4s3)C2)c1C (centres undefined) | 7%
COCC(=O)N1CCCC(C(=O)c2ccc(C(F)(F)F)cc2)C1 (centres undefined) | 6%
Cn1c(C(=O)O)cc2cc(F)ccc21 | 1%
COc1ccc(C(=O)Nc2cccc(NC(C)=O)c2)cc1OC | 2%
CCOc1ccccc1NC(=O)Cc1c(F)cccc1Cl | 11%
CCOc1ccc(-n2nc3ccc(NC(=O)COc4ccccc4C)cc3n2)cc1 | -9%
Cc1c(-c2ccccc2)n(-c2ccccc2O)c2nc3c(c(=O)n(C)c(=O)n3C)n12 | 28%
COC(=O)N/N=C/c1cc(C)n(-c2cccc3ccccc23)c1C | u
COc1cccc(CNc2ccc(N3CCCCC3)cc2)c1OC | -22%
Cc1ccc(-c2noc(CN(C3CCCCC3)S(=O)(=O)c3ccc(Cl)cc3)n2)cc1 | 21%
CC(C)(C)c1ccc(S(=O)(=O)N2CCN(c3ncccn3)CC2)cc1 | -1%
O=[N+]([O-])c1ccc(Sc2ccccn2)nc1 | 4%
Cn1c(Cn2c(=O)sc3ccccc32)nnc1SCC(=O)NCc1ccco1 | -13%
O=C(COc1ccc(-c2ccccc2)cc1)NNC(=O)Nc1ccccc1 | -9%
Cc1ccc(NC(=O)Cn2c(=O)n(Cc3ccc4c(c3)OCO4)c(=O)c3ccccc32)cc1 | 15%
COc1ccc(-c2nc3cnc(N4CCNCC4)nc3n(CCC#N)c2=O)cc1 | 2%
COc1ccc(CCNC(=O)c2ccc3nc(-c4ccco4)c(-c4ccco4)nc3c2)cc1OC | 79µM*
Cc1cccc(NC(=O)c2nc[nH]c2C(=O)N[C@@H](C)c2ccccc2)c1 | -6%
O=C(Oc1c(CN2CCOCC2)cc(Cl)c2cccnc12)c1ccc(F)cc1 | -9%
O=C(NCCCN1CCOCC1)c1ccc(Sc2ccc(F)cc2)c([N+](=O)[O-])c1 | -6%
O=C(CSc1nnc(-c2cccc(S(=O)(=O)N3CCCC3)c2)n1-c1ccccc1)Nc1cccc(C(=O)O)c1 | -15%
O=C(NC1CCCCC1)C(c1ccncc1)N(C(=O)c1csnn1)c1ccc(F)cc1 (centres undefined) | 43%[activator]
CC(C)/C=C1\CC/C(=C\c2ccc(N(C)C)cc2)C1=O | -6%
CCN(CC)S(=O)(=O)c1ccc(Br)c(OC)c1 | -12%
CCS(=O)(=O)Nc1cccc(C2=NN(S(C)(=O)=O)C(c3ccccc3)C2)c1 (centres undefined) | 2%
O=C(CSc1nnc(-c2ccncc2)n1-c1ccccc1)NC1CC1 | -15%
CCOC(=O)C1CCN(C(=O)COC(=O)Cc2ccc(Cl)cc2)CC1 | -13%
Cc1sc(NC(=O)Nc2ccccc2)c(C(N)=O)c1C | 89µM*
CCCc1cc(N2CCOCC2)n2ncc(-c3ccccc3)c2n1 | 13%
COc1cc(CCC(=O)OCC(=O)Nc2ccc(C)cc2Cl)cc(OC)c1OC | -10%
CN(C)/C(=N\S(=O)(=O)c1ccccc1)c1ccc([N+](=O)[O-])cc1 | -7%
COc1cc(C2C(C(C)=O)=C(C)Nc3ncnn32)ccc1O (centres undefined) | -7%
N#Cc1ccccc1S(=O)(=O)N1CCN(C(=O)c2cc(-c3ccccc3)nn2-c2ccccc2)CC1 | 1%
Cc1ccc(Cc2cnc(NC(=O)c3ccc4c(c3)CC(c3ccccc3)OC4=O)s2)cc1 (centres undefined) | 10%
COc1ccc(NC(=O)CSc2nnc(CNc3ccc(F)cc3)o2)c(OC)c1 | -11%
O=C(NN=C1CCCCCC1)c1ccc(Br)o1 | -8%
COc1ccc(C(=O)OCC(=O)NCC2CCCO2)cc1[N+](=O)[O-] (centres undefined) | -6%
COc1ccc(C)cc1NS(=O)(=O)c1ccc2c(c1)NC(=O)C(C)S2 (centres undefined) | 13%
CC1=Nn2c(nnc2-c2cc(-c3ccccc3)n[nH]2)SC1 | -2%
COc1ccc(NC(=O)c2ccc3c(SCC(=O)O)c4c(nc3c2)CCC4)c(OC)c1 | -11%
O=C(NC(Cc1c[nH]c2ccccc12)C(=O)Nc1ccc(F)c([N+](=O)[O-])c1)c1cccs1 (centres undefined) | -6%
COc1ccc(C(CNC(=O)c2cccc(NS(=O)(=O)c3ccccc3)c2)N(C)C)cc1 (centres undefined) | 1%
N#Cc1ccc(C(=O)NC(=S)NC2CCCCC2)cc1 | 5%
O=c1[nH]cc(S(=O)(=O)NCc2ccccc2)c(=O)[nH]1 | 9%
Cc1ccc(OCC(=O)NCc2ccc3c(c2)OCO3)c([N+](=O)[O-])n1 | -12%
CCC1CCCCN1CCCNC(=O)C1CCCN(S(=O)(=O)N2CC(C)CC(C)C2)C1 (centres undefined) | 3%
CC(=O)c1cccc(NC(=O)c2cnn(-c3ccccc3)c2C)c1 | -5%
CC1(c2nnc(-c3cccc(Cl)c3)o2)CC(c2c(Cl)cccc2Cl)=NO1 (centres undefined) | 2%
CN(C)c1ccc(-c2nc(NCCc3cnc[nH]3)c3ccccc3n2)cc1 | -1%
COc1cc(OC)cc(C(=O)N[C@H](C(=O)NNC(=O)c2ccc(Br)cc2)C(C)C)c1 | 1%
COc1ccccc1C(=O)NNC(=O)c1ccc(Br)cc1 | 8%
CC1(C)CC2CC(C)(CN2C(=O)COC(=O)c2cccc(O)c2)C1 (centres undefined) | 5%
COc1ccc(NC(=O)COC(=O)Cc2coc3cc(OC)ccc23)c(OC)c1 | -9%
Cc1ccc(CNC(=O)c2nc(SCc3cccc(C)c3)ncc2Cl)cc1 | 7%
Cc1ccc(SCc2nc(-c3ccccn3)no2)cc1 | 7%
COc1ccc(S(=O)(=O)NCc2csc(C)n2)cc1OC | 28%
COc1cccc2sc(N(CCCN(C)C)C(=O)c3sc4ccccc4c3Cl)nc12 | -12%
CCc1nnc(NC(=O)CCC(=O)NCCc2ccccc2)s1 | 1%
Continuation:
SMILES | VDR inh
O=C(Nc1nnc(-c2ccc3c(c2)CCCC3)o1)c1ccccc1 | -12%
O=C(NCCc1csc2nc(-c3ccccc3F)nn12)c1ccccc1C(F)(F)F | 11%
Cc1ccc(C2/C(=C(/O)c3ccc(OC(C)C)cc3)C(=O)C(=O)N2CCN2CCOCC2)cc1 (centres undefined) | -2%
COc1ccc(-c2[nH]c3ccccc3c2SCCNC(=O)c2cc3ccccc3oc2=O)cc1 | -6%
COc1cc(NC(=O)c2cccc([N+](=O)[O-])c2)ccc1NC(=O)c1ccco1 | -11%
Cc1cc(OCC(=O)N2CCN(c3ncccn3)CC2)ccc1Cl | -21%
CCNc1nc(-c2cc(C)n(Cc3ccco3)c2C)cs1 | -8%
CCCN(CCC)CCNC(=O)C1(O)c2ccccc2NC(=O)N1c1cccc(OC)c1 (centres undefined) | 22%
COc1ccc(S(=O)(=O)Nc2cccc3c2O[C@@H](CN(C)Cc2ccc(C(=O)O)cc2)[C@@H](C)CN([C@H](C)CO)C3=O)cc1 | 10%
COc1ccccc1N(CC(=O)NCc1ccccc1)C(=O)CCC(=O)Nc1nccs1 | -3%
CN(C)C(CNC(=O)C1CCN(S(=O)(=O)c2ccc(Cl)cc2)CC1)c1ccccc1 (centres undefined) | 4%
CCOc1ccccc1CNC(=O)C1CCN(c2nn3cc(-c4ccc(F)cc4)nc3s2)CC1 | 4%
COc1ccccc1NC1=C(Cl)C(=O)N(C2CCCCC2)C1=O | -11%
CC(O)c1c(OCc2ccccc2)ncnc1OCc1ccccc1 (centres undefined) | 0%
COc1ccc(S(=O)(=O)Nc2cccnc2)cc1OC | 21%
Cc1ccc(S(=O)(=O)N(CCC(=O)NCC(c2ccccc2)N(C)C)c2ccccc2)cc1 (centres undefined) | -15%
CCn1c2ccccc2c2cc(NC(=O)COc3cc(C)c(Cl)c(C)c3)ccc21 | -1%
CCc1ccc(CN(C)C(=O)CCc2nnc(Cc3cccc(C)c3)o2)nc1 | 2%
CCC(C(=O)NCc1cc(OC)ccc1OC)n1nc(C)c2sc3ccccc3c2c1=O (centres undefined) | 2%
CCN(CC)C(=O)CSc1nc(N)c2c3c(sc2n1)CC(C)CC3 (centres undefined) | 1%
O=C(NNc1ncccc1Cl)c1c(Cl)cccc1Cl | -11%
COc1cc(C(=O)N2CCCN(C)CC2)cc(OC)c1C | 18%
O=C1NC(c2ccncc2)C(C(=O)c2cccs2)C(O)(C(F)(F)F)N1 (centres undefined) | 8%
CCN(CC)CCOC(=O)c1ccc(N=CC2=C(O)CC(C)(C)CC2=O)cc1 | -6%
C/C(=C\c1ccco1)C1C(C#N)=C(N)Oc2n[nH]c(-c3ccc(C)cc3)c21 (centres undefined) | -5%
COc1ccc(N(CC(=O)N/N=C/c2cccs2)S(=O)(=O)c2ccccc2)cc1 | 2%
CCCN(CC(=O)Nc1ccccc1OC)C(=O)Cn1[nH]c(=O)c2ccccc2c1=O | -15%
COC(=O)c1cccc(NC(=O)c2cccnc2)c1 | 2%
Cc1ccc(S(=O)(=O)N(C)c2c(C)ccc(S(N)(=O)=O)c2C)cc1 | -15%
O=C(COC(=O)c1ccccn1)Nc1ccc2c(c1)OCCO2 | -17%
Cc1noc(C)c1C(=O)NC(C)C12CC3CC(CC(C3)C1)C2 (centres undefined) | -1%
Cc1ccc(S(=O)(=O)N2CCC3(CC2)OCCN3S(=O)(=O)c2cccs2)cc1 | -10%
COc1ccc(NC2=C3CC(C)CC=C3N(c3ccc(OC)cc3)C2=O)cc1 (centres undefined) | -6%
CCc1ccc(C(=O)NNC(=O)CN2C(=O)NC3(CCCC3)C2=O)cc1 | -27%
CC(=O)Nc1nc(-c2ccc3c(c2)CCN3C(=O)C2CC2)c(C)s1 | 16%
Cc1c(Cl)ccc2sc(N3CCN(C(=O)c4ccco4)CC3)nc12 | 18%
Cc1ncc(CN2CCCC(CCC(=O)NCc3ccc(F)c(F)c3)C2)s1 (centres undefined) | 3%
Cc1nc2cc(NC(=O)c3ccc(N4C(=O)CCC4=O)cc3)ccc2s1 | 7%
O=C(O)CCN1C(=O)c2ccc(NC(=O)c3cccs3)cc2C1=O | 12%
CS(=O)(=O)N(CC(=O)NCCC1=CCCCC1)c1ccc2c(c1)OCO2 | 1%
COCCN(C(=O)Cn1nnc2ccccc21)C(C(=O)NC1CCCCC1)c1ccc(OC)cc1OC (centres undefined) | -14%
Cc1oc2c(C)c(O)ccc2c(=O)c1-c1cnn(-c2ccccc2)c1 | 6%
CNCC(=O)NC(CCCN=C(N)N)C(=O)NC(C(=O)NC(Cc1ccc(O)cc1)C(=O)NC(C(=O)NC(Cc1cnc[nH]1)C(=O)N1CCCC1C(=O)NC(C)C(=O)O)C(C)C)C(C)C (centres undefined) | -5%
Cc1cc(Oc2nc3c(C)cccn3c(=O)c2/C=C(\C#N)S(=O)(=O)c2ccc(Cl)cc2)ccc1Cl | -27%
COc1c(F)c(F)c(C(=O)Nc2ccccc2N2CCN(C(C)=O)CC2)c(F)c1F | 12%
C=CCNc1nc(Nc2ccc([N+](=O)[O-])cc2)nc(N2CCCC2)n1 | -13%
O=C(Nc1nnc(SCc2ccc(F)cc2)s1)C1CC(=O)N(Cc2ccccc2)C1 (centres undefined) | 8%
C[C@@H]1COC(=O)[C@H](Cc2ccc(F)cc2)C/C=C\C[C@@H](CC(=O)N[C@H](CO)Cc2ccccc2)C(=O)N1 | -16%
COc1ccc(Cl)cc1N1C(=O)C2CCCN2C1c1ccccc1F (centres undefined) | -20%
O=c1c2oc3ccccc3c2n(Cc2cccc(C(F)(F)F)c2)c(=O)n1Cc1ccc2c(c1)OCO2 | -6%
CCOc1ccccc1C(=O)NC(C(=O)N(C)c1c(N)n(Cc2ccccc2)c(=O)[nH]c1=O)C(C)C (centres undefined) | -4%
COc1ccccc1NC(=O)COC(=O)CN1C(=O)C(=O)c2ccccc21 | -8%
Cc1ccc(NC(=O)CCS(=O)(=O)c2cccc3nonc23)cc1 | -5%
CCc1nc(C)ccc1OCC(=O)N1CCc2c([nH]c3ccccc23)C1c1ccccn1 (centres undefined) | -14%
Cc1ccc(OCc2occc2C(=O)O)cc1 | 9%
